Vaccinia pol inh = vaccinia E9 polymerase processive synthesis inhibitors, primary screen, biochemical, absorbance | normalized absorbance, % (test concentration not listed) | 46,000 tested, 0.94% active | in vitro processive DNA synthesis, absorbance read-out; stronger effect = lower value; some inactives read as strong as hits | AID 493162, 2011 | Vaccinia virus DNA polymerase (E9) processive complex;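 active = replicate mean up to 90% and picked by the depositor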;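 also: 100% = median of the test wells of a plate; 100 nL library stock went into each well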
Numbers without * were called inactive; & = joins results of further samples. This is a subset; count on the stated rates, not on these rows.

SMILES,Vaccinia pol inh
CC(C)(C)c1cc(N/C=C/C(=O)c2ccc(Cl)cc2)no1,102
Cc1cc(Oc2ccnc3cc(Cl)ccc23)ccc1Cl,110
CCN(CC)CCC(=O)c1ccc(F)cc1,98
CN1CCN(S(=O)(=O)Cc2cccc(C(F)(F)F)c2)CC1,104
COc1ccc(N2C(=O)C(F)(F)C2c2ccccc2)cc1 (stereo unspecified),89
O=C(NCCCN1CCOCC1)c1cc2c(s1)CCCC2,107
CCc1c(C)nc2sc(C)n[n+]2c1C,98
CCCc1cc2c(=O)c(-c3ccc(C(=O)OCC)o3)coc2cc1O,105
Cc1cc(C)cc(Nc2ccc(C(=O)O)cc2N)c1,100
CC(C)(C)C1CCc2nc(N)sc2C1 (stereo unspecified),96
CN(C)c1ccc(C(O)c2cccs2)cc1 (stereo unspecified),95
Cc1ccc(C(=O)NCc2ccco2)c(C)c1,103
CC(C)C(=O)N1N=C(c2ccc(NS(C)(=O)=O)cc2)CC1c1ccccc1 (stereo unspecified),102
O=C(CSc1ccc(Br)cc1)c1cc2ccccc2o1,100
CC(=O)n1c(C)c(-c2ccccc2)c2cc(Cl)ccc21,99
CCn1cc(C2=NC(C(C)C)CO2)c2ccccc21 (stereo unspecified),102
O=C(CSc1nnc2ccccn12)Nc1ccccc1,98
Cn1c(=O)n(C)c2cc(S(=O)(=O)NCCC(=O)O)ccc21,108
c1csc(-c2cn3c(n2)CCC3)c1,99
NC(=O)CSc1ncnc2ccccc12,103
CC(C)(C)C(=O)C[n+]1ccccc1,100
O=C(CSCc1ccc(C(=O)O)cc1)Nc1ccccc1,100
O=C(O)C(O)C(O)c1ccccc1 (stereo unspecified),99
CCN(c1ccccc1)S(=O)(=O)c1ccc2[nH]cc(C(=O)NCCC3=CCCCC3)c(=O)c2c1,111
Cc1cccc(S(=O)(=O)N2CCSC2c2ccccc2)c1 (stereo unspecified),100

(cont.)
SMILES,Vaccinia pol inh
CC1=C(C)CC2C(=O)N(c3ccc(N(C)C)cc3)C(=O)C2C1 (stereo unspecified),100
COc1ccc(-c2cc(C(F)(F)F)nc(SCCC(=O)NCCc3ccccc3)n2)cc1,105
CCOC(=O)Cc1c(C(=O)OCC)sc(N)c1C#N,101
O=C(Cc1ccccc1)Nc1ccc(-c2nnc3n2CCCCC3)cc1,104
CC(C)n1c(-c2cccs2)nc2ccccc21,107
O=C(SCC(=O)N1CCOCC1)c1ccccc1,104
O=C(Cn1sc2ccccc2c1=O)NCc1ccccc1,101
COc1ccccc1NC(=S)N(C1CCCCC1)C(C)c1ccco1 (stereo unspecified),95
Cc1ccc(NC(=O)c2ccccc2O)cc1,97
COc1ccc2c(c1OC)C(=O)OC2NN(C)c1cccc(F)c1C#N (stereo unspecified),99
Fc1ccc(N=Cc2ccco2)c(F)c1F,101
COc1ccc(-c2noc(N3CCC(C(=O)NCc4cccc(Cl)c4)CC3)n2)cc1,96
CC(C)N(C(=O)Cn1c(=O)oc2ccccc21)c1ccccc1,113
CCCN(CCC)C(=O)Cn1c(=O)n(-c2ccc(Cl)cc2)c(=O)c2c3c(sc21)CCC3,99
OC(CSc1nc2ccccc2s1)C(F)(F)F (stereo unspecified),92
O=C(OCc1ccccc1)C1CC2C=CC1C2 (stereo unspecified),100
Cc1onc(-c2c(Cl)cccc2Cl)c1C(=O)c1ccc(F)cc1,93
Cc1cc(-c2ccccc2)n2ncc(-c3ccccc3)c2n1,100
COC(=O)c1cc(NC(=O)/C=C/C(=O)O)ccc1N1CCOCC1,98
COC(=O)c1c(C(=O)OC)c2n(c1C)Cc1ccccc1C2,103
CCOC(=O)c1sc2ccccc2c1NC(=O)c1coc2ccccc2c1=O,86
O=C(COc1ccccc1)Nc1nc2c(s1)CCCC2,97
Cc1[nH]c2ccccc2c1SCCNC(=O)/C=C/c1ccc2c(c1)OCO2,106
CCC(C)[C@H](NC(=O)c1ccco1)C(=O)O (stereo partly specified),89
CCOc1ccccc1NC(=O)COC(=O)c1cc(Cl)cc(Cl)c1,97

Continuation.
SMILES,Vaccinia pol inh
O=c1cc(O)c2sc3nc(-c4ccccc4)ccc3c2[nH]1,95
O=S(=O)(NCCC1=CCCCC1)c1cccc2cccnc12,99
COc1ccc(OC)c(S(=O)(=O)NC2CCN(Cc3ccccc3)CC2)c1,99
O=C(N/C(=C/c1ccc(Cl)cc1)C(=O)N1CCOCC1)c1ccccc1,99
Cc1ccc(CNC(=O)COc2ccc3c(c2)C(=O)CC2(CCCCC2)O3)cc1,100
CN(C(=O)/C=C/c1ccccc1)C1CCS(=O)(=O)C1 (stereo unspecified),95
N#CCSc1nc2ccccc2c(=O)n1CCn1c(SCC#N)nc2ccccc2c1=O,103
CCC1=CC(c2c(O)c3ccccc3n(C)c2=O)=NC(C)CN1 (stereo unspecified),100
CCOc1ccc2nc(NC(=O)C(C)C)sc2c1,115&94
Oc1ccccc1N=CC=Nc1ccccc1O,92
O=C(c1ccc(S(=O)(=O)N2CCCCC2)cc1)N1CCc2ccccc2C1,100
N#CCSc1nc(N)c(C#N)c(-c2cccs2)c1C#N,100
CCNC(=O)c1sc(C)nc1N,101
Cc1ccc(N2C(=O)C3C4C=CC(CNC(=S)Nc5ccc(Br)cc5)(O4)C3C2=O)cc1 (stereo unspecified),97
CC(C)NC(=O)c1cc2cc3ccc(Cl)cc3nc2o1,102
O=C(Nc1cc(C(=O)N2CCOCC2)cc(C(=O)N2CCOCC2)c1)c1cc(F)c(F)cc1Cl,99
CC(=O)N/C(=N/c1nc(C)cc(C)n1)Nc1cc(C)cc(C)c1,100
O=C(COC(=O)Cc1cccc2ccccc12)NCc1ccc(F)cc1,88
NC(=O)COc1cccc(/C=C2/CC/C(=C\c3cccc(OCC(N)=O)c3)C2=O)c1,100
Cc1ccc(-n2c(=O)c3c(c4cc(C)ccc4n3C)n(CC(N)=O)c2=O)cc1,93
CCC(=O)Oc1ccc2cc(-c3nc4ccccc4n3C)c(=O)oc2c1,100
CN1C(=O)/C(=C\c2c(O)c3ccccc3n(C)c2=O)C(=O)c2ccccc21,100
CC(C)OC(=O)CSc1nc2ccccc2s1,100
COc1cc(CN2CCN(C(=O)COc3ccccc3)CC2)cc(OC)c1OC,99
COc1cccc(NC(=O)c2ccc3c(c2)CCCC3)c1,98

Looked up above.
O=C(N/C(=C/c1ccc(Cl)cc1)C(=O)N1CCOCC1)c1ccccc1 in Vaccinia pol inh reads 99
CCOc1ccc2nc(NC(=O)C(C)C)sc2c1 in Vaccinia pol inh reads 115&94
O=S(=O)(NCCC1=CCCCC1)c1cccc2cccnc12 in Vaccinia pol inh reads 99

The listing picks up with the four entries that preceded the break.
SMILES,Vaccinia pol inh
CN1C(=O)/C(=C\c2c(O)c3ccccc3n(C)c2=O)C(=O)c2ccccc21,100
CC(C)OC(=O)CSc1nc2ccccc2s1,100
COc1cc(CN2CCN(C(=O)COc3ccccc3)CC2)cc(OC)c1OC,99
COc1cccc(NC(=O)c2ccc3c(c2)CCCC3)c1,98
COc1ccc(C2CC(O)CC(c3ccc(OC)cc3)C23C(=O)NC(=O)NC3=O)cc1 (stereo unspecified),100
CC1(C)OC(=O)C(=Cc2ccc[nH]2)C(=O)O1,102
N#Cc1ccc(C#CCOC(=O)Nc2ccc(OC(F)(F)F)cc2)cc1,102
Cc1ccc(NC(=O)c2oc3ccc(S(=O)(=O)N4CCCC4)cc3c2C)cc1C,105
CSCC[C@H](NC(=O)[C@H](Cc1ccccc1)NC[C@@H](NC[C@@H](N)CS)C(C)C)C(=O)O,100
COC(=O)c1c(N2C(=O)C3CC(C)=C(C)CC3C2=O)sc(C)c1C (stereo unspecified),100
Oc1ccc(Br)cc1C1Nc2ccccc2S1 (stereo unspecified),102
Cc1ccc(NC2=CC(=O)NC2)cc1,106
CC1CCc2nc(NCCO)nc(C(F)(F)F)c2C1 (stereo unspecified),100
O=c1[nH]c2ncnn2c(-c2ccc(Cl)cc2)c1-c1ccc(F)cc1,103
COC(=O)c1sc(SCCOC(=O)c2ccccc2Cl)c2c1CC(C)(C)CC2=O,98
COc1ccc(CCNC(=O)C(C)(C)C)cc1OC,90
c1ccc(N=c2[n-][n+](-c3ccccc3)cn2-c2ccccc2)cc1,98
CCOC(=O)N1CCN(Cc2cc(=O)oc3ccc(OC)cc23)CC1,99
Cc1ccc(-n2cc(-c3ccccc3)c3c(NCc4ccccc4)ncnc32)cc1,101
C(=C\c1ccccc1)/CSc1nnc(-c2ccncc2)o1,94
CCOC(=O)c1oc2c(c1C)C(=O)CC(C)(C)C2,91
O=C(NCCN1C(=O)C2C3C=CC(C3)C2C1=O)N1CCCCC1 (stereo unspecified),101
CCc1ccc(C2=CC(c3ccc(SC)cc3)n3nnnc3N2)cc1 (stereo unspecified),100
Cn1c(=Nc2ccccc2C(=O)O)ccc2ccccc21,98
CC(=O)Nc1ccc(S(=O)(=O)NC2=NCN(CCOC(=O)c3ccccc3)CN2)cc1,100
Cc1ccc(C(=O)N2CCc3ccccc3C2)cc1,99
O=C(O)CN1C(=O)c2cc(Cl)c(Cl)cc2C1=O,100
c1ccc(CSc2ncnc3c2nnn3Cc2ccccc2)cc1,98
COc1nc(Cl)nc(N2CCCCC2)n1,100

Next records:
SMILES,Vaccinia pol inh
CCOC(=O)c1nccn1Cc1ccccc1Cl,100
CCOc1ccccc1C(=O)NCCSc1c[nH]c2ccccc12,100
CN1CCc2c(OCc3ccccc3Cl)cccc2C1=O,98
CCC(C(=O)O)c1ccc(N2Cc3ccccc3C2=O)cc1 (stereo unspecified),99
CCC(Sc1nc2ccccc2c2nc(C)nn12)C(=O)Nc1cc(OC)ccc1OC (stereo unspecified),101
NC(=O)NC1CCCCCCC1,97
Nc1ncnc2c1ncn2CCOc1ccccc1,98
O=C(NCCCN1CCOCC1)c1nnc(-c2ccc3c(c2)OCO3)o1,99
CC1=Nc2cc(C(=O)NC(C)c3ccccc3)ccc2Sc2ccccc21 (stereo unspecified),101
NC(=O)CSc1ncnc2c1nnn2Cc1ccc(F)cc1,100
CSc1ncc(Cl)c(C(=O)Oc2ccccc2Cl)n1,100
CS(=O)(=O)c1ccc(C(=O)Nc2ccc(N3CCCCC3)cc2)c(Cl)c1,94
O=C(Nc1cccc(Cl)c1)N1CCN(C2c3ccccc3-c3ccccc32)CC1,88
O/N=C/c1cccc(Cl)c1,95
CCc1nc(S(C)(=O)=O)c(C#N)cc1C,103
NC(=Nc1ccccc1)SCC(=O)Nc1nonc1N,100
CCS(=O)(=O)n1nc(-c2ccco2)nc1SC,106
Cc1ccc(S(=O)(=O)C(F)(F)F)cc1NC(=O)c1cccnc1,98
Cc1[nH]c2ccccc2c1C(=O)CSc1ccc(Cl)cc1,100
N#CCc1nc2ccccc2[nH]1,104
O=C(O)CSc1cccc[n+]1[O-],132
CCOc1nnc(NS(=O)(=O)c2ccc(N=Cc3ccccc3O)cc2)s1,100
C[N+]1(C)CC(=O)OC(CO)C1 (stereo unspecified),102
CC1=Nc2ccccc2N=C(N)C1c1ccc(Cl)cc1 (stereo unspecified),100
COc1cc(OC)c2nc(C)c3c(c2c1)SCC3,84

The results go on.
SMILES,Vaccinia pol inh
Cc1ccc(C)c(-n2c(SCc3ccc(C#N)cc3)nnc2-c2cc3sccc3n2C)c1,111
Cc1ccc(C(O)(C(=O)NN2CCOCC2)c2ccc(C)cc2)cc1,100
Cc1cccc(N(C)S(=O)(=O)c2ccc3c(c2)CCN3C(=O)C2CC2)c1,105
COC(=O)C1=C(C)C(c2ccc(OC)cc2)NC(=O)N1 (stereo unspecified),104
Cc1c(-c2cccc(NC(=O)C(C)(C)Oc3ccc(Cl)cc3)c2)nc2ncccn12,102
Cc1cc(C)n(-c2ccc(C(=O)Nc3nc4ccccc4s3)cc2)n1,97
COC(=O)C1=C(C)OC(N)=C(C#N)C1c1ccc(C(=O)OC)cc1 (stereo unspecified),89
C=CCNC(=O)C1CC(c2ccccc2F)=NO1 (stereo unspecified),104
O=C(CSC1=NCCS1)Nc1nnc(-c2ccc(Br)cc2)s1,100
COC(=O)c1ccc(Cn2nc(C(F)(F)F)cc2C)cc1,100
c1ccn(-c2ccc3nccnc3c2)c1,89
CCCc1cc(=O)oc2cc(OCC=C(C)C)ccc12,99
CC1=CC(C)C(C(=O)O)C(C(=O)O)C1 (stereo unspecified),106
CCC(NC(=O)c1ccc(S(=O)(=O)N2CCOCC2)cc1)C12CC3CC(CC(C3)C1)C2 (stereo unspecified),100
CC1=C(C#N)C(C(F)(F)F)(C(F)(F)F)N=C(c2ccncc2)N1,97
O=C(Cc1ccccc1)NCc1ccncc1,101
O=C(c1cc(Sc2ccc(Cl)cc2)nc2ccccc12)N1CCC2(CC1)OCCO2,107
CCOC(=O)N1CCC(c2cc(=O)n3[nH]c(-c4ccccc4)cc3n2)CC1,89
Cc1cc(OC(=O)N(C)C)nc(-c2ccc(C)c(Cl)c2)n1,96
CC1CC(C)CN(CCCNC(=O)c2ccc3c(SCC(=O)O)c4c(nc3c2)CCC4)C1 (stereo unspecified),99
C(=C\c1cccs1)/c1ccccc1,100
COC(=O)c1cc(S(=O)(=O)NCc2ccccc2)cn1C,111

Screening data deposited in PubChem BioAssay by ICCB-Longwood Screening Facility, Harvard Medical School.
